Screening results from PubChem.
nsP2pro primary: blocks chikungunya virus nsP2 protease peptide cleavage. Q8JUX6. FRET peptide cleavage, nsP2pro, fluorescence 1 h. Potency, µM (doses to about 24.9 µM), inactives show at the highest dose activity change, negative = inhibition, most hits filed as inhibitors. 31,000 compounds, 1.1% hits. AID 1964107; active means well fitted inhibition curve with a large enough effect; inconclusive means small, poorly fitted or top-dose-only effect; inactive means no such curve, though single readings can be large or run the other way; note: nearly all actives have a fitted effect of over 60% in size; a reference inhibitor and vehicle were the controls
* hit, by the source's call; & = joins results of further samples; [ ] = dose if it differs, or a comment. % is set by controls: 0 for no effect and ±100 for the full control effect; potency is the fitted concentration of half-maximal effect. A portion of the library (hit frequency here may not be typical).

The opening 4 records, ahead of the listing:
Cc1cc(F)ccc1S(=O)(=O)NCC(c1ccco1)S(=O)(=O)c1cccs1 (centres undefined) was read as nsP2pro primary -20%.
`COc1cc(CN(C(=O)Nc2ccccc2)c2ccccn2)cc(OC)c1OC` gave nsP2pro primary -13%.
CCNc1nccc(N2CCC(CC(=O)N3CCN(c4ccccc4F)CC3)CC2)n1 was read as nsP2pro primary inactive.
For CCC[C@@H](NC(=O)[C@@H]1[C@H]2CCC[C@@H]2CN1C(=O)[C@@H](NC(=O)[C@@H](NC(=O)c1cnccn1)C1CCCCC1)C(C)(C)C)C(=O)C(=O)NC1CC1 the results were nsP2pro primary 7.9µM*.

The listing, from the start:
Cc1cc(F)ccc1S(=O)(=O)NCC(c1ccco1)S(=O)(=O)c1cccs1 (centres undefined) was read as nsP2pro primary -20%.
`COc1cc(CN(C(=O)Nc2ccccc2)c2ccccn2)cc(OC)c1OC` gave nsP2pro primary -13%.
CCNc1nccc(N2CCC(CC(=O)N3CCN(c4ccccc4F)CC3)CC2)n1 was read as nsP2pro primary inactive.
For CCC[C@@H](NC(=O)[C@@H]1[C@H]2CCC[C@@H]2CN1C(=O)[C@@H](NC(=O)[C@@H](NC(=O)c1cnccn1)C1CCCCC1)C(C)(C)C)C(=O)C(=O)NC1CC1 the results were nsP2pro primary 7.9µM*.
CC1OC(=O)C[C@@H]2C(C(=O)O)=CO[C@@H](O[C@H]3O[C@H](CO)[C@@H](O)[C@H](O)[C@H]3O)[C@H]12 (some centres undefined) was read as nsP2pro primary inconclusive.
Screening O=C(CN1C(=O)N/C(=C\c2cccn2-c2cccc(C(=O)O)c2)C1=O)Nc1ccccc1F returned nsP2pro primary inactive.
For Cc1csc(CNc2ncnc3ccc(-c4cccc(Cl)c4)cc23)c1 the results were nsP2pro primary inactive.
For CCOC(=O)c1c(-c2ccc(C)cc2)csc1NC(=O)c1cc(-c2ccc(OC)cc2)on1 the results were nsP2pro primary -20%.
Screening COc1ccc(OC)c(NC(=O)c2cc(C3CC3)nc3c2c(C)nn3-c2ccc(C)cc2)c1 returned nsP2pro primary -25%.
Screening COc1ccc(C(=O)Nc2cccc(-c3cn4ccsc4n3)c2)cc1OC returned nsP2pro primary 33%[activator].
Screening N=C(N)c1ccc2nc(-c3cc(CC(=O)NC(CC(=O)O)C(=O)O)cc(-c4cc(S(N)(=O)=O)ccc4O)c3O)[nH]c2c1 (centres undefined) returned nsP2pro primary 16%.
Cc1ccc(NS(=O)(=O)c2cc3c(cc2F)NC(=O)CC3)cc1C was read as nsP2pro primary inactive.
For c1ccc2c(c1)Nc1ccccc1S2 the results were nsP2pro primary 10%.
`Cc1cc(C)c(NC(=O)CCN2CCCCC2)c(C)c1` gave nsP2pro primary -18%.
`COC(=O)[C@@H](Cc1c[nH]c2ccccc12)NC(=O)[C@@H]1CN(C(=O)c2cccnc2)CCN1C(=O)NC(C)C` gave nsP2pro primary -6%.
For FC(F)(F)c1cc(Nc2nc3ccccc3c3nncn23)ccc1Cl the results were nsP2pro primary -6%.
`Cc1ccc(-n2nc(C(=O)NCCN(C)C)c(=O)n(C)c2=O)cc1` gave nsP2pro primary -4%.
`Cc1ccc(NC(=O)CSc2ncnc3c2sc2ccccc23)cc1C` gave nsP2pro primary -22%.
`COc1ccccc1Nc1nn2c(=O)c3ccc(C(=O)NCc4cccs4)cc3nc2s1` gave nsP2pro primary -11%.
COc1cc2c(cc1OC)CN(C(=O)[C@H](C)N[C@@H](CCc1ccccc1)C(=O)O)[C@H](C(=O)O)C2 was read as nsP2pro primary -8%.
For Cc1cc(C(=O)N2CCCC[C@H](N(C)C)C2)c(-c2ccccc2)o1 the results were nsP2pro primary -1%.
For CN1C(=O)c2cccn2CC1CNC(=O)c1cccc2nccnc12 (centres undefined) the results were nsP2pro primary -3%.
CCOc1ccccc1N1CC(c2nc3ccccc3n2CCCOc2ccc(OC)cc2)CC1=O (centres undefined) was read as nsP2pro primary -5%.
c1nc(NCC2CC2)c2cc(-c3ccc4c(c3)OCO4)ccc2n1 was read as nsP2pro primary inactive.
For CC(C)c1ccccc1-c1ncc(F)c(NCc2ccc(-c3ccn[nH]3)cc2)n1 the results were nsP2pro primary -7%.
CCc1c(C)nn(CCNC(=O)c2cc(S(N)(=O)=O)ccc2F)c1C was read as nsP2pro primary 2%.
CC(=O)N1CCC2(C1)N=C(c1cccnc1)C(=O)N2 (centres undefined) was read as nsP2pro primary inconclusive.
For C=C(C)[C@@H]1CC[C@]2(C(=O)O)CC[C@]3(C)C(CCC4[C@]5(C)C(CC[C@]43C)C(C)(C)[C@@H](O)[C@@H]5C(=O)O)C12 (some centres undefined) the results were nsP2pro primary 4%[10 µM].
For COc1cccc([C@H]2CN(c3cc(C)nc(N)n3)[C@@H]3C4CCN(CC4)[C@H]23)c1 the results were nsP2pro primary inactive.
Cn1cnc(C(=O)N2CC(F)(F)C[C@H]2c2nc(C3CC3)no2)c1 was read as nsP2pro primary 3%.

Reprinted from the part before: 2 entries, followed by the next part.
For COc1cccc([C@H]2CN(c3cc(C)nc(N)n3)[C@@H]3C4CCN(CC4)[C@H]23)c1 the results were nsP2pro primary inactive.
Cn1cnc(C(=O)N2CC(F)(F)C[C@H]2c2nc(C3CC3)no2)c1 was read as nsP2pro primary 3%.
For CC(C)(C)NC[C@H](O)COc1cccc2c1CCCC2=O the results were nsP2pro primary -10%&-4%.
Screening Cc1ccccc1Cn1nc2n(c1=O)CCCCC2 returned nsP2pro primary -15%.
For CC(C)(C)c1ccc(-c2nc3ccccc3[nH]2)cc1 the results were nsP2pro primary 4%.
COCCOC1CCN(C(C(=O)O)c2ccc(OC)c(F)c2)CC1 (centres undefined) was read as nsP2pro primary 3%.
`N#Cc1cccc(C(=O)N2CCNc3cnc(Nc4cccc(F)c4)nc3C2)c1` gave nsP2pro primary -14%[39.2 µM].
Screening CCOc1ccc(-c2nc(CNC(=O)Nc3ccccc3)c(C)o2)cc1 returned nsP2pro primary -18%.
Cc1ccc(Cn2cc(CCC(=O)NCC(C)c3ccccc3)c3ccccc32)cc1 (centres undefined) was read as nsP2pro primary -6%.
`CC(C)N1CC[C@@H]2[C@H]1C(=O)NC[C@H](CCC(=O)NCc1ccc(F)cc1)N2C` gave nsP2pro primary -10%[39.2 µM].
For Nc1ccncc1 the results were nsP2pro primary -3%[39.2 µM].
`COc1cc(C(=O)NS(=O)(=O)c2ccccc2C)ccc1Cc1cn(C)c2ccc(NC(=O)OC3CCCC3)cc12` gave nsP2pro primary 54%[activator].
Screening CCC[C@@H](NC(=O)N1C(=O)C(CC)(CC)[C@@H]1Oc1ccc(C(=O)N2CCN(C)CC2)cc1)c1ccc2c(c1)OCO2 returned nsP2pro primary 27%.
Screening CCOC(=O)C1=C(C)NC(C)=C(C(=O)OC)C1c1cccc([N+](=O)[O-])c1 (centres undefined) returned nsP2pro primary 5%.
Screening Cc1cc(C)c(Cn2c3ccccc3c3cnn(CC(=O)NCc4ccc(Cl)cc4)c(=O)c32)c(C)c1 returned nsP2pro primary -14%.
CCc1c(C)sc(NC(=O)C2CCCCC2C(=O)O)c1C(N)=O (centres undefined) was read as nsP2pro primary -13%.
CC(C)N[C@@H]1CCn2c(=O)[nH]c3cccc(c32)[C@H]1O was read as nsP2pro primary 11µM*.
For CN(C)c1oc(/C=C/c2ccc(F)cc2)nc1C#N the results were nsP2pro primary -17%.
For CS(=O)c1ccc(-c2nc(-c3ccc(F)cc3)c(-c3ccncc3)[nH]2)cc1 (centres undefined) the results were nsP2pro primary 5%.
Screening COCCCNC(=O)c1cc2n(n1)CCCN(Cc1ccc(C)cc1)C2=O returned nsP2pro primary -21%.
O=C(CSc1nnc(CNC(=O)c2ccccc2F)n1-c1ccccc1)Nc1ccccc1F was read as nsP2pro primary -5%.
COc1cccc(NC(=S)N2CCN(c3cc(Cl)cc(Cl)c3)CC2)n1 was read as nsP2pro primary -11%.
O=C1Nc2ccccc2C12CN(Cc1ccc(C(F)(F)F)cc1)C2 was read as nsP2pro primary -6%.
Screening CC1(C)CC[C@]2(C(=O)O)CC[C@]3(C)C(=CC[C@@H]4[C@@]5(C)C[C@@H](O)[C@H](O)C(C)(C)[C@@H]5CC[C@]43C)[C@@H]2C1 returned nsP2pro primary inconclusive.
For COc1c(Nc2ncc(Cl)c(N[C@H]3[C@@H](C(N)=O)[C@@H]4C=C[C@H]3C4)n2)ccc2c1CC[C@@H](N1CCOCC1)CC2 the results were nsP2pro primary 20%.
For Cc1ccc(Nc2ncc(C(=O)N3CCN(c4ccc(F)cc4)CC3)c3ccccc23)cc1Cl the results were nsP2pro primary 8%.
For CCCN1CCc2nc(N3CCN(C)CC3)ncc2C1 the results were nsP2pro primary 21%.
Screening CCOc1ccc(NC(=O)c2c(NC(=O)c3ccccc3F)sc3c2CCC3)cc1 returned nsP2pro primary 4%.
Screening CC(C)(C)c1ccc(S(=O)(=O)NCc2ccc(C(=O)Nc3cccnc3)cc2)cc1 returned nsP2pro primary 0%.
CC(C)(C)OC(=O)N1CCN(c2ccc(NCc3ncc(-c4ccc(C#N)cc4)s3)cc2)CC1 was read as nsP2pro primary -8%.
NC(CS)C(=O)O (centres undefined) was read as nsP2pro primary inconclusive.
For COc1cccc(CNC(=O)C2CCCN(S(=O)(=O)c3ccc4c(ccn4C)c3)C2)c1OC (centres undefined) the results were nsP2pro primary -7%.
For Cc1ccc(CNc2ccc(N3CCCCC3)cc2)cc1 the results were nsP2pro primary -15%.
`O=C(CSc1nc2c([nH]c3ccccc32)c(=O)n1-c1cccc(Cl)c1)N1CCOCC1` gave nsP2pro primary -15%.
`O=C(Nc1ccc(F)c(C(F)(F)F)c1)Nc1nnc(-c2ccncc2)o1` gave nsP2pro primary -3%.
Screening CCN1CCN(C(c2ccc(Cl)cc2)c2ccc(Cl)cc2)CC1 returned nsP2pro primary -5%.
`OCCOc1ccc(/C(=C(/CCCl)c2ccccc2)c2ccccc2)cc1` gave nsP2pro primary 4%.
Cc1c(C(=O)OCC2CCCO2)[nH]c2c1C(=O)CCC2 (centres undefined) was read as nsP2pro primary 3%.
Screening CCOC(=O)c1c(C)[nH]c(C)c1S(=O)(=O)N1CCC(C(=O)NCc2ccc(OC)cc2)CC1 returned nsP2pro primary -12%.
`CCCCCC[C@@H](CCC)C(=O)O` gave nsP2pro primary -7%.
Screening O=C(NC1CCCN(CCn2nc3n(c2=O)CCCC3)C1)c1ccccc1Cl (centres undefined) returned nsP2pro primary -4%.
Cc1cccc(NC(=O)CCNS(=O)(=O)c2ccc3c(c2)CCCC(=O)N3)c1C was read as nsP2pro primary -8%.
For CNC(=O)c1cc(Oc2ccc3nc(N[C@@H]4CCCC[C@H]4O)sc3c2)ccn1 the results were nsP2pro primary -3%&9%.
`COc1cc(/C=C/CO[C@@H]2O[C@H](CO)[C@@H](O)[C@H](O)[C@H]2O)cc(OC)c1O[C@@H]1O[C@H](CO)[C@@H](O)[C@H](O)[C@H]1O` gave nsP2pro primary 6%[10 µM].
`CCCSc1nc2c(c(=O)[nH]1)C(c1ccc(F)cc1F)CC(=O)N2` (centres undefined) gave nsP2pro primary -2%.
For C[C@@H]1CN(C(=O)CN2CCN(c3ncccn3)CC2)C[C@@]1(O)C1CCC1 the results were nsP2pro primary inactive.
Screening CC(NC(=O)CC(=O)O)C(=O)Nc1ccccc1C(N)=O (centres undefined) returned nsP2pro primary -10%.
N#Cc1ccc(C(=O)N2CCN3CCS(=O)(=O)N(C4CC4)C(=O)C3C2)cc1 (centres undefined) was read as nsP2pro primary 1%.
`Cc1cc(Nc2cccc(Cl)c2)nc2ccc(NC(=O)Cc3cccc(C(F)(F)F)c3)cc12` gave nsP2pro primary 18%.
`Cc1sc2ncn(CC(=O)N(C)c3ccc(C(C)C)cc3)c(=O)c2c1S(=O)(=O)N1CCC(C)CC1` gave nsP2pro primary 10%.
CCc1c(C(=O)C(N)=O)c2c(OCC(=O)O)cccc2n1Cc1ccccc1 was read as nsP2pro primary -18%&20%.
Screening COC1CCOC2(CCN(S(=O)(=O)c3cn(C)cn3)CC2)C1 (centres undefined) returned nsP2pro primary inactive.

Some of these compounds in order of number of heavy atoms, descending:
`COc1cc(/C=C/CO[C@@H]2O[C@H](CO)[C@@H](O)[C@H](O)[C@H]2O)cc(OC)c1O[C@@H]1O[C@H](CO)[C@@H](O)[C@H](O)[C@H]1O` gave nsP2pro primary 6%[10 µM].
`Cc1cc(Nc2cccc(Cl)c2)nc2ccc(NC(=O)Cc3cccc(C(F)(F)F)c3)cc12` gave nsP2pro primary 18%.
CCc1c(C(=O)C(N)=O)c2c(OCC(=O)O)cccc2n1Cc1ccccc1 was read as nsP2pro primary -18%&20%.
N#Cc1ccc(C(=O)N2CCN3CCS(=O)(=O)N(C4CC4)C(=O)C3C2)cc1 (centres undefined) was read as nsP2pro primary 1%.

The list continues.
O=C(Nc1ccc(-c2ccncc2)cc1)N[C@H](CO)c1ccccc1 was read as nsP2pro primary 20%.
`Cc1csc2nc(CCNS(=O)(=O)c3ccccc3)cn12` gave nsP2pro primary -10%.
`O=C(c1n[nH]c2c1CCCC2)N1CCc2nc3cc[nH]n3c(=O)c2C1` gave nsP2pro primary inactive.
For C[C@@]1(F)[C@H](O)[C@@H](CO)O[C@H]1n1ccc(=O)[nH]c1=O the results were nsP2pro primary -19%&-2%.
For CCCN(C(=O)NCc1noc2ccc(C)cc12)c1ccc(Cl)c(Cl)c1 the results were nsP2pro primary -17%.
CCOc1ccc(CCNC(=O)C2CCCCC2)cc1OCC was read as nsP2pro primary inactive.
For CCN(CC)C(=O)N[C@H]1C[C@@H]2c3cccc4[nH]cc(c34)C[C@H]2N(C)C1 the results were nsP2pro primary 22%.
COc1ccc(-n2ncc(C(=O)N3CCN(C4CCCCC4)CC3)c2C2CCN(C(=O)OC(C)(C)C)CC2)cc1 was read as nsP2pro primary -8%.
CC(C)N1C[C@@H]2OCC(=O)N(Cc3ccccc3)[C@@H]2C1 was read as nsP2pro primary -19%[39.2 µM].
`N#Cc1cccc(-c2ccc(CNc3nc(-c4ccccc4C(F)(F)F)nc4ccccc34)cc2)c1` gave nsP2pro primary -2%.
`CC(C)N1C[C@@H](CO)[C@H](c2nc(-c3cccnc3)no2)C1` gave nsP2pro primary -13%.
